High-throughput results (PubChem BioAssay)
RanGTP-Imp inh: disruptors of Ran-importin-beta complex formation – biochemical, FRET, CFP-Ran, YFP-importin-beta, homogeneous, primary screen | AID 2216 | cell-free CFP-Ran/YFP-importin-beta FRET ratio | hit rate 1.1% among 300,000 | inhibition, % (no concentration beside the values);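 active = most replicates above 15%; inconclusive = exactly half above 15%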;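 also: 0% = DMSO wells and 100% = Ran loaded with GDP instead of GTP; wells of about 40 µL received 100 nL stock; the first replicate is given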
Ecoli growth: blocks Escherichia coli growth | hit rate 0.21% among 330,000 | OD600 absorbance (no concentration beside the values) | AID 1053175 | OD600, 23 h; hits give low values;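 active = OD600 absorbance below the run mean of sample wells minus 3.6 SD, in any replicate, cut at about 0.56 in these data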;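 also: stock transfer was 300 nL into about 60 µL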
Vif TR-FRET: HIV-1 Vif–A3G interaction blockers – biochemical, TR-FRET, GST-Vif 1-94, biotin-A3G peptide, dose response retest, primary screen (AID 1117319). TR-FRET GST-Vif / biotin-A3G peptide binding; higher % means a stronger effect; test concentration not given here; strong numbers were not always called active. one-dose inhibition, %; IC50 in µM for titrated hits. hit rate 0.57% among 260,000;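 active = above the screen mean plus three standard deviations and confirmed in dose response; inconclusive = results disagree or hit not tested in dose response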;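 also: Vif residues 1-94 fused to GST binding biotinylated APOBEC3G peptide 110-148; 0% = full assay without inhibitor and 100% = GST in place of GST-Vif; retest series ran down from 100 µM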
UCH37 DUB inh: human UCH37 deubiquitinating enzyme inhibition; Q9Y5K5; purified proteasome/UCH37, Ub-AMC cleavage fluorescence; inhibition, % (concentration not given with the values); hit rate 0.33% among 330,000;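 active = mean of two replicates above 20%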;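 also: 0% = compound-free wells with enzyme and 100% = wells lacking proteasome; stock transfer was 100 nL into about 20 µL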
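Test system – human UCH37 enzyme supplied as purified proteasome complex · Incubation – 30 min preincubation with enzyme, 25 min cleavage at room temperature · Detection – AMC fluorescence from Ub-AMC cleavage, excitation 355 nm, emission 460 nm · Benchmarks – no-proteasome wells (full inhibition) and compound-free wells (no inhibition)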
FGF22 binding: shifts melting point of recombinant human FGF22; hit rate 1.5% among 340,000; calls only at 9.99 µM; Q9HCT0; recombinant FGF22 thermal shift, SYPRO orange fluorescence; percent of sucrose octasulfate shift, DMSO zero; AID 651658;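 active = melting point raised past a set limit in the mean and every replicate; inconclusive = no clear call; three in four hits are not shown here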
AF4-AF9 inh: MLL-AF4/AF9 protein interaction inhibition; hit rate 0.47% among 350,000; P42568; inhibition, % at 10 µM; AlphaScreen, biotin-AF4 peptide binding to FLAG-AF9; AID 651704;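 active = every replicate reaching a set inhibition limit, whatever the replicate mean, cut at about 25% in these data; inconclusive = mean inhibition reaches that limit but some replicates miss it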;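 also: 0% = plate neutral control median and 100% = total signal loss; the record names both 10 and 1 µM as test concentration; the first replicate is given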
Target sequence (P42568 whole entry, looked up): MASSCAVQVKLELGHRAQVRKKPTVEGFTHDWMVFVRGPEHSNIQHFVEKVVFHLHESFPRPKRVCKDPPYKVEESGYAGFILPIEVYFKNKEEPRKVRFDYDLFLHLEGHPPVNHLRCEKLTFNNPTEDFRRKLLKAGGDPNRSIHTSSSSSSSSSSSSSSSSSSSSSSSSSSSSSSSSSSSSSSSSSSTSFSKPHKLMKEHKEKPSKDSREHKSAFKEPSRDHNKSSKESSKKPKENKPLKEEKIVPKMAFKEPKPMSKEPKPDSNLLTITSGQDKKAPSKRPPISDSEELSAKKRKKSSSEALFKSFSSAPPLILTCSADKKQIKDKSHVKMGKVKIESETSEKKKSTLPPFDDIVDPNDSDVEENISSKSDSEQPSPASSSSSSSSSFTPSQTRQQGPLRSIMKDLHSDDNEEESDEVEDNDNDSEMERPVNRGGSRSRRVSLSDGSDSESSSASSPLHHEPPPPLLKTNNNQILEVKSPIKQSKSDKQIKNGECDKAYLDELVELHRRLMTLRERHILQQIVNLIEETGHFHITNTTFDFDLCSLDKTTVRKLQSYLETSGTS
HNF4A DNA FP: change in binding of human HNF4 alpha to DNA | P41235 | HNF4a-FITC DNA binding, fluorescence polarization, 1 h | activity change, % at 10 µM | hit rate 0.3% among 360,000 | AID 1224865; in the data active = activity change above about 30%, passing the limit was not always enough;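 also: controls were the assay level and a saturating level of protein; the project sought stronger binding though the title names inhibitors; some compounds called inactive have numbers as strong as hits; positive values seem to mean higher polarization but the record does not say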
Target sequence (P41235 whole entry, looked up): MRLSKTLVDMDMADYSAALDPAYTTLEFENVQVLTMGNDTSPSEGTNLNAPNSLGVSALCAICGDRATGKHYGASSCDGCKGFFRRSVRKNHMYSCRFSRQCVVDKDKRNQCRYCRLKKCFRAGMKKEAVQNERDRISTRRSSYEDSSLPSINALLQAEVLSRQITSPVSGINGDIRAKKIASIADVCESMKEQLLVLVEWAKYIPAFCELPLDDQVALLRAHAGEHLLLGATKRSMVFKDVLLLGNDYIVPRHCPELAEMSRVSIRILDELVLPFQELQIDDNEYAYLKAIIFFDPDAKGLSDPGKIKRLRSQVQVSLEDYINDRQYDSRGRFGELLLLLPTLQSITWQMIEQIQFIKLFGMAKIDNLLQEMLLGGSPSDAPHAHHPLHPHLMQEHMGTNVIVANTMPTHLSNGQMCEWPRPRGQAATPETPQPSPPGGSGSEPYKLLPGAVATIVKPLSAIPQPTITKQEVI
Active calls of the source: *; i = inactive; ? = inconclusive; nt = not tested or not shown; & = joins results of further samples. Some of the compounds tested. The share of hits here may be higher or lower than overall.

SMILES	RanGTP-Imp inh	Ecoli growth	Vif TR-FRET	UCH37 DUB inh	FGF22 binding	AF4-AF9 inh	HNF4A DNA FP
CC(Sc1nnc(N)s1)C(=O)Nc1ccc(N2CCOCC2)cc1 (centres undefined)	-1.0	0.7	18%	1.4	nt	nt	1.2
CC(C)Cn1c2c(c(=O)[nH]c1=O)C(C(F)(F)F)(C(F)(F)F)N=C(CCC1CCCCC1)N2	0.3	0.63	nt	-32	nt	nt	-71
COc1nc(NCc2cccnc2)nc(OC)n1	?	0.68	3%	-1.7	nt	nt	-1.1
Cc1ccc(C)c(N(CC(=O)N(C)C)S(C)(=O)=O)c1	2.9	0.68	-4%	1.5	nt	nt	-0.1
CCN1C(=O)/C(=C\c2nc3ccccc3c(=O)n2CC)c2ccccc21	2.6	0.71	nt	3.1	i	?	2.4
CSc1nc2cc(C)nn2c(-c2ccccc2)c1C#N	-1.1	0.71	-19%	-8.5	i	nt	1.7
COC(=O)COc1ccc(S(=O)(=O)Nc2ccccc2SC)cc1	0.1	0.7	28%	2.8	nt	nt	3.2
Cn1c(CSc2nc3ccccc3s2)nnc1SCC(=O)NCCCN1CCOCC1	1.0	0.68	17%	1.5	nt	nt	1.5
COCCNC(=O)CCCn1c(=O)c2ccccc2n(Cc2ccccc2C#N)c1=O	-2.1	0.67	6%	2.0	i	0.7	-2.8
CC(C)CCCN1C(Nc2ccccc2)=NC[C@@H]1C	-6.1	nt	nt	1.2	i	1.4	2.2
COc1ccc(CN2CCN(Cc3c[nH]c4ccccc34)CC2)cc1	-2.1	0.66	nt	1.7	i	1.5	-1.9
CCOC(=O)C1=C(C)N=c2s/c(=C\c3cccn3C)c(=O)n2C1c1cccc(OC)c1OC (centres undefined)	-1.4	nt	-4%&-3%	nt	nt	nt	84*
Cc1ccccc1S(=O)(=O)Nc1nc2ccccc2nc1Cl	5.8	0.73	0%	-3.0	i	-14	-6.7
O=C(NC1CCCC1)c1ccc(Cl)s1	4.5	0.68	nt	-1.2	i	-1.2	-1.4
Cc1cccc(N/C=C(\[N+](=O)[O-])S(=O)(=O)c2ccccc2)c1	1.9	0.71	-4%	1.4	i	-1.6	-8.7
COc1ccc(NC(=O)C(CC(C)C)NC(=O)C2CCC(C)CC2)cc1 (centres undefined)	-5.4	0.71	nt	3.3	i	1.3	0.2
O=C(CSc1ncnc2sccc12)Nc1ccc(S(=O)(=O)N2CCOCC2)cc1	nt	0.68	5%	1.7	i	-1.8	4.6
O=C1C2(c3ccccc3)CN(CCCO)CC1(c1ccccc1)CN(CCCO)C2	8.7	0.72	16%	2.1	i	-78	1.4
O=C(NCCNCCO)c1c(O)c2cccc3c2n(c1=O)CCC3	-2.6	0.68	-6%	-1.6	nt	nt	3.4
COc1ccc(S(=O)(=O)Nc2c(NC3CCCCC3)c3ccccc3oc2=O)cc1OC	0.5	0.74	nt	-0.1	i	-4.1	7.6
CC1(C)OC(=O)C(=NNc2ccc(C(=O)O)cc2)C(=O)O1	1.6	0.68	-3%	18	i	-4.4	-4.3
COc1ccc(N2CC(O)=C(c3nc(-c4ccc(F)cc4)cs3)C2=N)cc1Cl	-4.6	0.7	-2%	-1.2	i	-2.9	2.9
COc1cccc(OCc2nc3c4cnn(-c5ccccc5)c4ncn3n2)c1	-1.1	0.72	29%	-9.2	nt	nt	1.8
CCCCOc1ccc(N2C(=O)CC(NCc3ccncc3)C2=O)cc1 (centres undefined)	?	0.69	1%	-0.2	i	1.2	1.7
O=C1CCCCN1CCCC(=O)N1CCCC(Nc2ccccc2)C1 (centres undefined)	4.7	0.71	nt	2.0	i	2.6	-2.4
(list continues)
SMILES	RanGTP-Imp inh	Ecoli growth	Vif TR-FRET	UCH37 DUB inh	FGF22 binding	AF4-AF9 inh	HNF4A DNA FP
CN(C)CCCN(C(=O)c1ccc(S(=O)(=O)N2CCc3ccccc32)cc1)c1nc2ccc(Cl)cc2s1	3.9	0.65	nt	5.6	i	7.9	3.8
Cc1cc(C)c(C#N)c(SCC(=O)c2cccs2)n1	-2.9	0.73	2%	6.9	nt	nt	-0.8
COc1ccc(-n2cnnc2SCc2ncc(-c3ccccc3)o2)cc1	-1.7	0.66	15%	3.2	nt	nt	-2.5
CCCNC(=O)N[C@H]1C=C[C@H](CC(=O)NC2CCCCC2)O[C@@H]1CO	nt	nt	nt	nt	i	-1.1&-0.5	7.3
Cc1ccc(CNC(=O)C(NS(=O)(=O)c2ccc3nc(C)sc3c2)C(C)C)cc1 (centres undefined)	2.9	0.75	-2%	6.5	i	7.3	-0.2
COc1ccccc1/C=N/OCc1ccc(C#N)cc1	6.6	nt	2%	nt	i	-0.2	2.2
CC(C)C1=C2OC(N)=C(C#N)C(C#N)=C2C(C)CC1 (centres undefined)	12	0.73	0%	-57	nt	nt	-5.8
O=S1(=O)C=C(SCc2cccc(Cl)c2)Nc2ccccc21	-0.9	0.65	-1%	2.1	nt	nt	-0.5
CCOC(=O)c1cc(C(=O)OCC)cc(-n2c(C)cc(C(=O)CN3CCOCC3)c2C)c1	-1.4	0.7	10%	-0.6	nt	nt	1.3
CCNc1ccc(C(=O)OCC(=O)NCCN2C(=O)CSC2=O)cc1[N+](=O)[O-]	1.6	0.7	-11%	4.9	i	-3.2	0.7
COc1ccc(CCNC(=O)CSc2cc(=O)[nH]c(N)n2)cc1OC	-3.0	0.69	6%	1.6	nt	nt	0.7
CCOc1ccc(CCNC(=O)C2CCCN(c3ncnc4c3nc3n4CCCCC3)C2)cc1 (centres undefined)	0.1	0.69	nt	5.6	i	0.8	0.3
NC(=O)c1ccccc1NS(=O)(=O)c1ccc(S(=O)(=O)N2CCCC2)cc1	nt	0.68	nt	2.3	i	-5.8	-1.6
COc1ccc(NC(=S)NC(=O)CC(C)C)c(OC)c1	3.2	0.71	nt	3.8	i	-0.2	3.5
CCOC(=O)COc1cccc2c(=O)n(CC(=O)NCCc3ccccc3)ccc12	-2.4	0.67	-7%	-1.9	i	-15	-0.5
CCN(c1ccccc1)S(=O)(=O)c1ccc(Cl)c(NC(=O)COC(=O)C2CC2C)c1 (centres undefined)	0.1	0.68	-7%	1.8	nt	-2.3	-2.7
CC(=O)N1CCOc2cc(S(=O)(=O)N3CCN(c4ccccc4)CC3)c(Cl)cc21	-2.7	0.66	nt	4.6	i	-6.9	2.8
CC(NC(=O)CCC(=O)NC(C)C1COc2ccccc2O1)C1COc2ccccc2O1 (centres undefined)	-2.3	0.71	-1%	2.5	nt	nt	-1.8
O=C(COc1ccc(F)cc1)Nc1nnc(C2CCCCC2)s1	nt	nt	nt	nt	i	-2.7	-3.9
CC(=O)Nc1c(C(=O)N2CCCCCC2)cnn1-c1ccccc1Cl	-0.8	0.72	7%	0.2	nt	nt	6.7
CN(C)c1cc[n+](Cc2c(Cl)cccc2Cl)cc1	-1.7	0.67	-1%	1.8	nt	nt	3.9
COc1cc(C2/C(=C(\O)c3ccc4c(c3)OCCO4)C(=O)C(=O)N2CCN2CCOCC2)cc(OC)c1OC (centres undefined)	2.2	0.69	nt	11	i	0.2	1.3
COC(=O)CNC(=O)Cn1nc(C)c([N+](=O)[O-])c1C	0.0	0.69	-1%	-0.1	i	0.3	-0.8
O=C(Nn1c(-c2ccc(F)cc2)nc2ccccc2c1=O)C1CCCCC1	2.2	0.68	1%	2.0	i	1.9	0.3
Cc1ccc2nc(-c3ccccc3O)c(Nc3ccc4c(c3)OCCO4)n2c1	4.9	0.7	-4%	-56	nt	8.8	-3.3

Fetched by structure from the list above (3):
SMILES	RanGTP-Imp inh	Ecoli growth	Vif TR-FRET	UCH37 DUB inh	FGF22 binding	AF4-AF9 inh	HNF4A DNA FP
CN(C)c1cc[n+](Cc2c(Cl)cccc2Cl)cc1	-1.7	0.67	-1%	1.8	nt	nt	3.9
O=C(COc1ccc(F)cc1)Nc1nnc(C2CCCCC2)s1	nt	nt	nt	nt	i	-2.7	-3.9
O=C(Nn1c(-c2ccc(F)cc2)nc2ccccc2c1=O)C1CCCCC1	2.2	0.68	1%	2.0	i	1.9	0.3

(cont.)
SMILES	RanGTP-Imp inh	Ecoli growth	Vif TR-FRET	UCH37 DUB inh	FGF22 binding	AF4-AF9 inh	HNF4A DNA FP
CCSc1nsc(NC(=O)Nc2cccc(C(C)=O)c2)n1	2.1	0.57	nt	-0.2	i	-5.8	0.0
COc1ccc(/C=N/Nc2ncc(C(F)(F)F)cc2Cl)c(OC)c1OC	5.8	nt	8%	nt	nt	nt	-1.8
CC(C)CC(=O)NNC(=O)c1ccc(Cl)cc1	-1.6	0.71	nt	1.1	i	-3.0	2.0
CCCCC(O)(CCCC)C(=O)NN(C(=O)CCl)c1ccccc1	-7.2	0.69	11%	1.8	i	-2.3	0.7
O=C(CN1CCN(c2ncc(C(F)(F)F)cc2Cl)CC1)N1CCN(c2ncc(C(F)(F)F)cc2Cl)CC1	1.5	0.68	2%	-0.5	nt	nt	0.1
O=C(C1CCCO1)N1N=C(c2ccc(Br)cc2)CC1c1ccco1 (centres undefined)	-2.4	0.68	nt	4.0	i	5.8	-0.9
Cc1cc(NC(=O)CCC(=O)NNC(=O)c2ccc(C(C)(C)C)cc2)no1	4.1	0.69	nt	-0.8	i	-1.5	4.5
Cc1cc(C)nc(SCCC(=O)Nc2ccc(F)cc2)n1	-2.2	0.65	-9%	0.8	i	2.5	0.0
O=C(CNc1ccccc1)N/N=C/c1cn(-c2ccccc2)nc1-c1ccccc1	?	nt	-6%	nt	i	2.6	0.4
C#CCOCCOCCOCCNc1nc(N2CCN(C(=O)CCCCCCCCCCNC(=O)[C@H](CO)n3cc(CCCSC)nn3)CC2)nc(N2CCN(C(=O)CCCCCCCCCCNC(=O)[C@H](CO)n3cc(CCCSC)nn3)CC2)n1	-0.3	nt	nt	1.0	i	-19	-4.2
Cc1cccc(C)c1NC(=O)c1ccc(-c2cc(F)ccc2F)o1	nt	nt	nt	nt	i	-1.0	-1.5
CC(=O)c1c(C)[nH]c(C(=O)OCC(=O)Nc2sc3c(c2C#N)CCC(C)C3)c1C (centres undefined)	-2.4	0.73	11%	1.1	i	-5.9	7.8
Cc1cc(=O)oc2c(C)c(OCC(=O)NCC3CCC(C(=O)O)CC3)ccc12 (centres undefined)	5.9	0.78	nt	-27	i	6.3	-0.2
S=C1NCN(Cc2ccccc2)CN1	1.0	0.62	28%	-2.1	i	-3.4	0.8
Cc1cccc2sc(NC(=O)Cn3c(C)csc3=O)nc12	nt	0.71	-7%	3.7	i	-1.5	1.6
CCOC(=O)/C(=C/Nc1ccc(F)c(F)c1)[N+](=O)[O-]	-2.7	0.65	0%	4.1	nt	nt	2.8
COC(C(=O)Nc1ccc(Cl)cc1C)c1ccccc1 (centres undefined)	4.6	0.68	-7%	-1.2	i	0.5	-5.3
CCOC(=O)C(=Cc1ccc(OCc2ccc([N+](=O)[O-])cc2)c(OC)c1)C(=O)OCC	-0.6	0.74	12%	-3.5	nt	nt	-1.1
CCOC(=O)COc1nc(C)c(Br)c(OC)n1	1.1	0.66	0%	1.9	nt	nt	0.6
O=C(C(=O)N1CCCC1)c1c[nH]c2ccccc12	-1.8	0.64	nt	0.3	i	0.8	1.1
NC1=C(Cl)C(=O)c2ccccc2C1=O	nt	nt	nt	nt	i	2.4	2.2
COc1ccc(C[C@H]2CN3C(=NC[C@@H]3Cc3ccccc3)N2CCNC(=O)c2ccc(C)c(Br)c2)cc1	0.6	nt	3%	2.8	nt	nt	3.9
CN1C(=O)[C@H]2[C@@H](/C=C/c3ccccc3)N3C(=O)CN(Cc4ccccn4)C(=O)[C@@]3(Cc3ccccc3)[C@H]2C1=O	nt	nt	nt	1.0	i	1.1	0.5
O=C(COc1cc(Cl)c(Cl)cc1Cl)NC(=O)Nc1ccc2c(c1)OCCO2	?	0.66	?	4.3	nt	nt	1.5
CCN(CC1CCCO1)C(=O)CCc1nnc(CCc2ccccc2)o1 (centres undefined)	nt	nt	0%	nt	i	-1.3	2.8
